Compound activity deposited in PubChem by National Center for Advancing Translational Sciences (NCATS).
VDR inhibitor: blocks the human vitamin D receptor. 400,000 tested, 0.93% active. P11473. AID 504847. VDR-SRC2-3 peptide fluorescence polarization, 2 h. Potency, µM, inactives show max response, negative = inhibition, usual class: inhibitors; active = well fitted inhibition curve with a large enough effect; inconclusive = small, poorly fitted or top-dose-only effect, or another doubt; inactive = no such curve, though single readings can be large or run the other way; also: series mostly up to about 120 µM
Target sequence (P11473 whole entry, looked up): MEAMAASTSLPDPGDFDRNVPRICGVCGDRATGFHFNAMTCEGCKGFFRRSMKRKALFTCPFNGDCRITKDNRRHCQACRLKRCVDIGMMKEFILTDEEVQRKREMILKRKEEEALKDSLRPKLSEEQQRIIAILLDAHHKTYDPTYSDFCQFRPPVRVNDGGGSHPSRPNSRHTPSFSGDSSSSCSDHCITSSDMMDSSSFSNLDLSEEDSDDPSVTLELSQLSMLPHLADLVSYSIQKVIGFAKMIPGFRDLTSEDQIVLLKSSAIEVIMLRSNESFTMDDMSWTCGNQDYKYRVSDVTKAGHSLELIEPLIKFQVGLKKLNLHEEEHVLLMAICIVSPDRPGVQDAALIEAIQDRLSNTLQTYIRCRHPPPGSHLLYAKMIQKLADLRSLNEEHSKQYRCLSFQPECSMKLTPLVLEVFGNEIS
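VDR–SRC2-3 interaction, FP format. Cmpds 23 nl via pintool, brief spin, 2 h ambient incubation.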
An asterisk follows results filed as active; ? = inconclusive; & = joins results of further samples. % is scaled to controls: 0 for no effect and ±100 for the full control effect; potency is read from the fitted curve at half-maximal effect. This is a subset; the hit share may differ from the screen's.

SMILES | VDR inhibitor
O=C(COc1ccccc1)N1CCCC1 | -7%
CN1C(=O)/C(=C/c2ccccc2Cl)Sc2ccc(C(=O)N3CCCC3)cc21 | -24%
CCCCNC(=O)NC1C(NC(=O)NCCCC)N(C)C(=O)N1C (centres undefined) | 8%
COc1cccc(/C=N/NC(=O)c2cccc3ccccc23)c1OC | 10%
COc1ccccc1NS(=O)(=O)c1ccc(O)c(C(=O)OCC(=O)Nc2ccccc2F)c1 | -8%
Cc1ccc(S(=O)(=O)c2cc(OC(=O)c3ccco3)ccc2OC(=O)c2ccco2)cc1 | 12%
CC1Cc2ccccc2N1C(=S)NC(=O)C1(C)CC1(Cl)Cl (centres undefined) | -4%
C/C(=N\NC(=O)c1ccc(F)cc1)c1cccc(NC(=O)c2ccco2)c1 | 2%
COc1cccc2cc(-c3cc(=O)oc4cc(C)c(O)cc34)oc12 | -7%
O=C(NC1CCCC1)C(c1ccncc1)N(C(=O)c1ccco1)c1ccc(Cl)cc1 (centres undefined) | 4%
Cc1ccc2cc3cc(C(=O)NCCN4CCOCC4)oc3nc2c1 | 1%
CCCN1C/C(=C/c2cccc([N+](=O)[O-])c2)C(=O)/C(=C/c2cccc([N+](=O)[O-])c2)C1 | ?
O=C(/C=C/c1cn(-c2ccccc2)nc1-c1ccccc1)Nc1ccc(C(=O)O)cc1 | -8%
CN(C)c1cccc2c(S(=O)(=O)N3CCCC3)cccc12 | 3%
CCOC(=O)c1c(C(F)(F)F)cc(-c2ccc(F)cc2)nc1C | -5%
CCOC(=O)COc1ccc(S(=O)(=O)Nc2cccc(SC)c2)cc1 | 9%
COc1ccc(-c2nnc(NC(=O)c3cc(Cl)ccc3Cl)o2)cc1 | -15%
CC(=O)Nc1ccc(C(=O)COC(=O)CN2C(=O)NC3(CCCCC3C)C2=O)cc1 (centres undefined) | 2%
Cc1ccc(C(=O)N[C@H](C(=O)Nc2ccc(F)cc2)C(C)C)cc1 | 16%
COCCNC(=O)c1c(-c2ccccc2)c(-c2ccccc2)nn(C)c1=O | 13%
CC(C)CCN1CCN(Cc2cnc(-c3ccccc3)s2)CC1CCO (centres undefined) | -1%
COc1ccccc1NC(=O)N(O)C1(C#N)CCCCC1 | -16%
CCCN(CCC)C(=O)c1cn(CC)c2ccc(S(=O)(=O)N3CCCCC3)cc2c1=O | -2%&-9%
C[C@@](O)(/C=C/[C@H]1CC=CC(=O)O1)[C@@H](C[C@@H](O)\C=C/C=C\C=C\CO)OP(=O)(O)O | -4%
O=C(CCc1nc(-c2ccccc2F)no1)NC1CCCCC1 | -14%
Cc1ccc2c(=O)cc(C(=O)NCc3ccccc3)oc2c1C | -23%
Cn1c(=O)c2c(nc(SCCN3CCOCC3)n2Cc2ccc(F)cc2)n(C)c1=O | 16%
COc1cc(C(=O)NNC(=S)Nc2ccc(S(N)(=O)=O)cc2)cc(OC)c1OC | 4%
C/C(=N\Nc1cc(-c2ccccc2)nc(-c2ccccc2)n1)c1ccc(O)c(C)c1 | -2%
CCN(CC(=O)NCc1ccc(Cl)cc1)C(=O)CSc1cc(C)ccc1C | -2%
COc1cccc(CN(C)C(=O)CN2C(=O)NC(c3ccccc3)(c3ccccc3)C2=O)c1OC | -4%
CC(C)n1cc(/C=C2/SC(=O)N(CC(=O)Nc3ccc4c(c3)OCO4)C2=O)c2ccccc21 | 3%
Cc1ccncc1C(N)=O | 4%
O=[N+]([O-])c1ccc(S(=O)(=O)NCc2nc3cccnc3n2Cc2ccccc2Cl)cc1 | -4%
COc1cccc(-c2nc(-c3ccccn3)no2)c1OC | -4%
Cc1cc(C)c2nc(SCC(=O)Nc3cc(C)on3)c(C#N)cc2c1 | 19%
O=C(NCc1nnnn1-c1ccc(F)c(F)c1)c1ccc(S(=O)(=O)N2CCOCC2)cc1 | -24%
S=C(Nc1cc(Cl)cc(Cl)c1)N1CCCC1 | -16%
Cc1ccc(S(=O)(=O)N(C)CCCC(=O)NC(C)(C)C)cc1 | -1%
Cc1ccc(NC(=O)C(C)OC(=O)CSc2ccccc2)cc1 (centres undefined) | -4%
Cn1nc(-c2ccc(N3CCOCC3)c(NS(=O)(=O)c3ccc(Cl)cc3)c2)c2ccccc2c1=O | -18%
O=C1Nc2ccc(Br)cc2/C1=C/C1CC=CCC1 (centres undefined) | 71µM*
CCN(CC)c1ccc(NC(=O)CSc2nnc(N)s2)cc1C | -2%
O=C(c1csnn1)N1CCC2(CC1)CN(c1ncccn1)C2 | -1%
COc1cc(-c2c(-c3cc(OC)c(OC)c(OC)c3)noc2C)ccc1F | 8%
COCCN(Cc1ccco1)C(=O)C1CCCN(c2ncnc3c2nc2n3CCCCC2)C1 (centres undefined) | 4%
CCOc1ccc(Cn2nnc(C(=O)Nc3cc(OC)cc(OC)c3)c2N)cc1 | -10%
CCOn1c(SC(C)C)nc2ccccc2c1=O | -1%
CCOc1ccc(S(=O)(=O)c2cn(Cc3ccc(OC)cc3)c3ccc(F)cc3c2=O)cc1 | -2%
COc1ccccc1NC(=O)CC1CCCC1 | 0%

Carrying on:
SMILES | VDR inhibitor
Cc1ccc(NC(=O)c2cc(-c3ccc(F)cc3)on2)cc1C | -30%
CC(C)(C)C(=O)Nc1sc2c(c1C#N)CCC2 | -4%
c1ccc(-c2oc3ncnc(NCCCN4CCOCC4)c3c2-c2ccccc2)cc1 | -3%
Cc1cccc(NC(=O)c2ccc(-c3nc(CSc4ccccc4)c(C)o3)cc2)c1C | 7%
O=C1N/C(=N\S(=O)(=O)c2ccccc2)S/C1=C\c1cc([N+](=O)[O-])ccc1O | ?
O=C(c1cccc(C(=O)N2CCN(Cc3ccccc3)CC2)c1)N1CCN(Cc2ccccc2)CC1 | 16%
OC[C@@H](O)C(O[C@@H]1O[C@@H](CO)[C@H](O)[C@H](O)[C@H]1O)[C@H](O)[C@@H](O)CO (some centres undefined) | -4%
COc1ccc(C2=CN3CCCCC3CC2=O)cc1OC (centres undefined) | -15%
COc1cc(/C=C/CO)cc(OC)c1O[C@@H]1O[C@H](CO)[C@@H](O)[C@H](O)[C@H]1O | -8%
CC(C)(C)N(Cc1ccccc1)C(=O)COC(=O)C1CCN(c2ccc(C(F)(F)F)cn2)CC1 | -27%
CC(=O)c1c(C)[nH]c(C(=O)CN2CCN(S(=O)(=O)c3ccccc3F)CC2)c1C | 5%
O=C(Nc1c2c(nn1-c1ccc(F)cc1)CS(=O)C2)C12CC3CC(CC(C3)C1)C2 (centres undefined) | 0%
Cn1cccc1CC(=O)NNC(=S)Nc1ccccc1Cl | 12%
Cc1ccc(C(=O)Nc2ccccc2C(=O)NC2CCCCC2)cc1S(=O)(=O)N1CCOCC1 | 6%
CCCN1C(=O)SC(CC(=O)Nc2ccc(C)cc2)C1=O (centres undefined) | 9%
CCOC(=O)c1c(N)nn(C(=O)c2ccccc2F)c1-c1ccc(OC)cc1 | -2%
COc1ccc(CCn2c(NN)nc3c2c(=O)[nH]c(=O)n3C)cc1 | -5%
CN1CC[n+]2c(CN3C(=O)c4ccccc4C3=O)csc21 | -1%
Cc1ccc(NC(=O)CSc2ccc(-c3cccs3)nn2)cc1Cl | -2%
Cc1ccccc1CNC(=O)c1ccccc1NC(=O)c1nsc2ccccc12 | 3%
C/C(=N\NC(=O)C(C)Sc1ccccc1)C(C)(C)C (centres undefined) | -12%
O=C(NC1CC(=O)N(c2ccccc2)C1)c1ccc(Br)o1 (centres undefined) | 9%
CCS(=O)(=O)Nc1ccccc1C(N)=O | 6%
Cc1ccc(-c2sc(C(=O)NN)c(C)c2C#N)cc1 | -20%
Cc1[nH]c2ccccc2c1C(=O)CSC(=S)N1CCCCC1 | -10%
Cc1ccccc1NC(=O)CN(c1ccc(F)cc1)S(C)(=O)=O | 17%
O=[N+]([O-])c1ccc(COc2ccccc2CN2CCCC2)cc1 | -5%
O=c1cc(-c2ccccc2)n(S(=O)(=O)c2ccc3ccccc3c2)o1 | ?
COc1ccccc1NC(=O)C1=C(C)Nc2nc3ccccc3n2C1c1cccc(Br)c1 (centres undefined) | -5%
CCN(CC)CCC[C@H](C)Nc1ccnc2cc(Cl)ccc12 | 8%&7%
CCC(=O)NC(Nc1ccccn1)(C(=O)OC)C(F)(F)F (centres undefined) | 13%
CCCCC/S(CC1CC1(Cl)Cl)=N\S(=O)(=O)c1ccc(C)cc1 (centres undefined) | -2%
Cc1ccc(S(=O)(=O)NCCC(=O)NC2CCCCC2C)cc1 (centres undefined) | -14%
O=C(Cc1ccccc1[N+](=O)[O-])Nc1ccc2c(c1)OCO2 | 15%
CCOc1ccc(CNC(=O)CN2C(=O)C(c3ccccc3)Oc3cccnc32)cc1 (centres undefined) | 3%
CCOc1ccc(N(CC(=O)NCCC2=CCCCC2)S(=O)(=O)c2ccccc2)cc1 | 4%
COc1ccc(OC)c(-c2cc(C(=O)Nc3ccc(F)cc3F)no2)c1 | -3%
COc1ccccc1NC(=O)c1cc(S(=O)(=O)N2CCCC2)cn1C | -13%
CCOC(=O)N1CCN(c2cc(=O)n(-c3ccc(C)cc3)c(=O)[nH]2)CC1 | -7%
CCC(C)n1c(SCc2ccc([N+](=O)[O-])cc2)nc2ccsc2c1=O (centres undefined) | 5%
CC(C)(C)c1cc(C2COC(=O)COCCOCC(=O)OCCOCCO2)cc(C(C)(C)C)c1O (centres undefined) | -7%
O=C(CN1C(=O)c2ccccc2C1=O)NCc1ccncc1 | 6%
Cc1ccc(C(=O)NC(C#N)=C(Cl)Cl)cc1 | 0%
Cc1ccc(OC(C)C(=O)Nc2ccncc2)cc1C (centres undefined) | -16%
O=C(O)c1cc(Cl)c(Cl)cc1C(=O)Nc1cccc2cccnc12 | 0%
CN(Cc1ccccc1)C(NC(=O)c1ccco1)C(Cl)(Cl)Cl (centres undefined) | -14%
OCCC1CN(Cc2cn[nH]c2C2CCCCC2)CCN1C1CCCC1 (centres undefined) | 11%
CCN(Cc1nc(-c2ccc(C)cc2)no1)C(=O)c1ccco1 | -1%
O=[N+]([O-])c1ccc(C[n+]2cc(-c3ccccc3)n3c2CCCCC3)cc1 | -1%
CCOC(=O)C1(Cc2ccccc2)CCCN(Cc2cccc(C(C)=O)c2)C1 (centres undefined) | 0%

(continued)
SMILES | VDR inhibitor
Cn1c(N)nc2nc(CCc3ccccc3)c(=O)[nH]c2c1=O | -8%
COc1ccc(N2CCN(C(CNC(C)=O)c3ccco3)CC2)cc1 (centres undefined) | 6%
COc1ccc2c(C)c(CCC(=O)NCc3ccc(OC)c(OC)c3)c(=O)oc2c1 | 5%
CCCCn1c(CNC(=O)C(C)(C)C)nc2ccccc21 | -20%
C=CCNC(=O)c1cc2c(C(F)(F)F)nn(C)c2s1 | -3%
CN1CCN(C(=O)c2cc(Cl)ccc2Cl)CC1 | 12%
Cc1ccc(C)c2c1sc(=NC(=O)CN1C(=O)CCC1=O)n2C | -5%
COc1ccc(C2/C(=C(/O)c3ccc(C)cc3)C(=O)C(=O)N2C)c(OC)c1 (centres undefined) | -6%
O=C1C=CC(=C(c2ccc(O)cc2)c2ccc(O)cc2)C=C1 | 50µM*
O=C(Nc1ccc([N+](=O)[O-])cc1)OCCc1ccccn1 | -15%
CCN(CC(=O)Nc1c(F)cccc1F)C(=O)c1ccc(C(=O)c2ccccc2)cc1 | -1%
COc1ccc(C)cc1NC1=C(Cl)C(=O)N(C2CCCCC2)C1=O | -9%
COc1ccc(N2CCN(C(=O)C34CCC(C)(C(=O)C3)C4(C)C)CC2)cc1 (centres undefined) | 6%
CN1CCC(N(C)C(=O)NC2CCCCC2)CC1 | -12%
C[C@@]12CCC(=O)C=C1CC[C@@H]1[C@@H]2[C@H](O)C[C@]2(C)[C@@H]1CC[C@]2(O)C(=O)CO | -2%
COc1ccc2c(c1OC)C(=O)OC2Nc1ccc(S(=O)(=O)N=C(N)N)cc1 (centres undefined) | -3%
CNC(=S)SCCOc1ccc(C)cc1 | 9%
Cc1cccc(CSc2nc(N)c(C#N)c(-c3cccs3)c2C#N)c1 | 4%
